# Screening results as filed in PubChem.
# LASV entry inh = Lassa virus entry inhibition | Lassa virus pseudotype entry inhibition, cell reporter; control for the full effect not named in the record | AID 540256 | 300,000 compounds, 1.2% hits | Potency, µM (doses to about 37.9 µM), for the others: at the top dose activity change, negative = inhibition, actives largely listed as inhibitors; active means well fitted inhibition curve with a large enough effect; inconclusive means small, poorly fitted or top-dose-only effect, or effect the other way; inactive means flat fitted curve, though single readings scatter; tested in HEK293 cells; note: % is set by controls: 0 for no effect and ±100 for the full control effect; nearly all actives have a fitted effect of over 50% in size; luciferase read-out
# StopGo reporter = FMDV 2A StopGo reporter, luciferase signal | human cells with a luciferase reporter of 2A StopGo recoding; control for the full effect not named in the record | Potency, µM (doses to about 57.9 µM), for the others: at the top dose signal change, negative = less light | AID 1159524 | 410,000 compounds, 1.2% hits; active = well fitted falling curve with a large enough effect; inconclusive = small, poorly fitted or top-dose-only effect; inactive = no such curve, though single readings can be large or run the other way; tested in HEK293T cells; note: % is set by controls: 0 for no effect and ±100 for the full control effect; nearly all actives have a fitted effect of over 45% in size; luciferase light after 4 h
# SARS PLP yeast = inhibitors of SARS-CoV papain-like protease in yeast; S. cerevisiae expressing SARS-CoV PLpro, growth rescue; control for the full effect not named in the record; Potency, µM (highest dose often 32.9 µM), without a hit: at the highest dose activity, positive = growth rescue; 330,000 compounds, 0.19% hits; AID 485353; note: 0% is about no effect; nearly all actives have a fitted effect of over 55% in size; growth read by luminescence after 48 h
# Cruzain inh Det = inhibitors of Trypanosoma cruzi cruzain with detergent | Potency, µM, without a hit: max response, negative = inhibition, actives largely listed as inhibitors | 200,000 compounds, 0.43% hits | purified cruzain, Z-FR-AMC fluorescence, 0.01% Triton | AID 1478 | P25779; active = well fitted curve in the direction sought with a large enough effect; inconclusive = small, poorly fitted or top-dose-only effect, or another doubt; inactive = no such curve, though single readings can be large; an effect the other way counts as inactive or inconclusive;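 note: plate controls were neutral wells for no effect and buffer without enzyme for full effect; nearly all actives have a fitted effect of over 40% in size; top concentration of the series not given in the record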
# Target sequence (P25779 123-467 limits assumed): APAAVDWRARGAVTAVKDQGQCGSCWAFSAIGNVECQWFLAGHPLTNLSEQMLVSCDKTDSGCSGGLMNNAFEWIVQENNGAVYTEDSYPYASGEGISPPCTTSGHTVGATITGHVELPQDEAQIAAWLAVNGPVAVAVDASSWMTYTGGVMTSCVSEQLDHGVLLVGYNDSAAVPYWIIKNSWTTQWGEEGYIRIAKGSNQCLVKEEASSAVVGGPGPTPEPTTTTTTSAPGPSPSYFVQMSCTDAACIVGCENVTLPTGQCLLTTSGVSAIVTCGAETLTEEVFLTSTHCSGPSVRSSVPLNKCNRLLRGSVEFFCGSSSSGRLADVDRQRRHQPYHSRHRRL
#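 15 min RT preincubation of 1.5 nM cruzain with compound, then 2 uM Z-FR-AMC added; kinetic AMC fluorescence, 60 s delta. Triton X-100 0.01%, pH 5.5.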
# Cruzain noTriton = blocks cruzain activity in detergent-free assay | P25779 | purified cruzain, Z-FR-AMC fluorescence, no detergent | Potency, µM, for the others: max response, negative = inhibition, actives largely listed as inhibitors | 200,000 compounds, 2.3% hits | AID 1476; active = well fitted curve in the direction sought with a large enough effect; inconclusive = small, poorly fitted or top-dose-only effect, or another doubt; inactive = no such curve, though single readings can be large; an effect the other way counts as inactive or inconclusive;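 note: plate controls were enzyme without inhibitor for no effect and buffer without enzyme for full effect; nearly all actives have a fitted effect of over 40% in size; top concentration of the series not given in the record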
#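 Detergent-free condition (0.00005% Triton X-100) in acetate buffer pH 5.5 with DTT. 1.5 nM enzyme and compound were pre-mixed 15 min, then 2 uM Z-FR-AMC substrate added; reaction progress from fluorescence change between first and third reads (60 s).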
# RE007 growth inh = less growth of the S. pombe RE007 Vpr strain. S. pombe RE007 Vpr strain, BacTiter-Glo ATP luminescence, 24 h; control for the full effect not named in the record. Potency, µM (highest dose often 92.2 µM), for inactives: at the top dose activity change, negative = less growth. 360,000 compounds, 0.21% hits. AID 651644; active = well fitted falling curve with a large enough effect; inconclusive = small, poorly fitted or top-dose-only effect; inactive = no such curve, though single readings can be large or run the other way;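 note: % is set by controls: 0 for no effect and ±100 for the full control effect; nearly all actives have a fitted effect of over 50% in size; the assay follows cell death caused by Vpr and the record does not say whether a fall means rescue or toxicity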
#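 Fission yeast strain RE007, carrying one chromosomally integrated HIV-1 vpr copy, was seeded at OD 0.01 in PMG+AL medium with 23 nL pinned compound. After 24 h at 30 °C and 99% humidity, viability was read by BacTiter-Glo luminescence.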
# MARV entry inh = Marburg virus entry inhibition | Marburg virus pseudotyped entry inhibition, cell reporter; control for the full effect not named in the record; about a third of the inactives were read at about 46 µM | Potency, µM (highest dose often 37.8 µM), without a hit: top-dose activity change, negative = inhibition, hits mostly inhibitors | 300,000 compounds, 1.8% hits | AID 540276; active = well fitted inhibition curve with a large enough effect; inconclusive = small, poorly fitted or top-dose-only effect, or effect the other way; inactive = flat fitted curve, though single readings scatter; tested in HEK293 cells; about a fifth of its hits are not listed in these tables; note: % is set by controls: 0 for no effect and ±100 for the full control effect; luciferase read-out
# NS1 function inh = blocks influenza NS1 protein function; S. cerevisiae slowed by influenza A NS1, growth recovery by OD600; Potency, µM (doses to about 46.1 µM), inactives show at the top dose activity, positive = more growth; 270,000 compounds, 0.4% hits; AID 2326; note: actives are rising curves; nearly all actives have a fitted effect of over 50% in size
#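 Recovery from NS1-induced slow growth read by OD600 in budding yeast switched to galactose assay medium (pH 6.0, -URA) at 1:100 dilution. Compound 23 nl per well; the matching strain lacking NS1 serves as control.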
# * marks the source's active call; other numbers are inactive results; ? = inconclusive; . = not tested or not shown; [ ] = another dose, or the depositor's remark. Unless noted, calls come from the whole dose curve; as a rule, active means well fitted rising curve with a large enough effect; inconclusive means small, poorly fitted or top-dose-only effect; inactive means no such curve, though single readings can be large or run the other way. Potency is the fitted concentration of half-maximal effect. No enrichment for hits (roughly 4.7% active in at least one column).
SMILES,LASV entry inh,StopGo reporter,SARS PLP yeast,Cruzain inh Det,Cruzain noTriton,RE007 growth inh,MARV entry inh,NS1 function inh
O=C(Nc1ccc(N2CCCCC2)cc1)c1cc([N+](=O)[O-])cc([N+](=O)[O-])c1,18%[46.1 µM],-2%,0%,.,.,17%,-1%[46.1 µM],.
COC1(OC)C(=N/O)/C(=N\O)CCC1O (stereo unspecified),8%,.,1%,1.5%,-7%,-5%,3%,-3%
CCCN1CNC(=S)N(CC2CCCO2)C1 (stereo unspecified),1%,5%,1%,7.2%,3%,-12%,?,21%
CCOC(=O)C1(Cc2ccc(OC)cc2)CCN(C(=O)c2ccc3[nH]ccc3c2)CC1,.,5%,0%,.,.,2%,.,2%
Cc1cccc(-c2nc3scc(CCNS(=O)(=O)c4ccc5c(c4)OCCO5)n3n2)c1,-2%[46.1 µM],46%[activator],.,-4.1%,2%,.,.,.
COc1cc(Br)cc(CN2CCN(C/C=C/c3ccccc3)CC2)c1O,-4%,-16%,-21%,2.4%,2%,-11%,-27%,-6%
Cc1nc(NS(=O)(=O)c2ccccc2)sc1NC(=O)Nc1ccc(Cl)cc1,.,30%,-1%,.,.,-2%,.,9%
Cn1c(Oc2ccc(F)cc2F)c(C=O)c2ccccc21,?,-22%,-1%,.,.,-7%,?,-7%
C=CCN1C(=O)C(CC(=O)NCC)SC1=Nc1cc(Cl)ccc1Cl (stereo unspecified),-8%[46.1 µM],-21%,3%,.,.,22%,-18%[46.1 µM],2%
O=[N+]([O-])c1ccc(-c2cn3c(n2)CCC3)cc1,.,42%[activator],-1%,.,.,-25%,.,6%
Cc1ccccc1CN1CCN(CC(=O)NCc2ccccn2)C1=O,.,-9%,-1%,-1.4%,-2%,7%,.,1%
COc1cccc(CNCc2ccc3c(c2)OCO3)c1,-4%,-9%,0%,.,.,-12%,-21%,3%
CCc1c(C)nc(N)nc1N1N=C1SCC(=O)OC,11%,6%,0%,.,.,-14%,9%[46.1 µM],5%
CCN1C(=O)N(CN2CCOCC2)C2C1N(CN1CCOCC1)C(=O)N2CC (stereo unspecified),18%,-25%,2%,6.4%,-7%,7%,23%[46.1 µM],7%
Cc1ccc(NC(=O)Cc2c(Cl)cccc2Cl)cc1S(=O)(=O)N(C)C,?,-13%,-6%,-2.8%,?,8%,?,19%
O=C(Nc1ccc([N+](=O)[O-])cc1)c1ccc(Cn2cc([N+](=O)[O-])cn2)cc1,.,?,1%,.,.,3%,.,2%
O=C(NCc1ccccc1)C1=C[C@H](c2ccc(C(F)(F)F)cc2)C[C@H](OCc2ccc(CO)cc2)O1,.,-25%,-2%,.,.,0%,.,12%
CCNC(=O)c1cc(Br)ccc1Cl,0%,20%,7%,2.0%,9%,5%,1%,7%
CCOC(=O)C1(CCc2ccccc2)CCN(C(=O)CCc2cnccn2)CC1,-11%[46.1 µM],14%,0%,.,.,-9%,-1%[46.1 µM],-1%
O=C1CN(C(=O)CSc2nc(-c3ccc(Cl)cc3)cs2)c2ccccc2N1,-26%,?,-15%,-6.6%,?,3%,?,8%
CN(CC(=O)Nc1cccc(F)c1)C(=O)c1csc2c1CCCC2,14%,-8%,4%,.,.,-18%,-1%,.
O=C(COc1ccc(S(=O)(=O)N2CCCCC2)cc1)NC1CCCCC1,-26%,0%,0%,8.7%,-5%,0%,-9%,-16%
COc1cccc2c(=O)n(CC(=O)N3CCCCCC3)ccc12,.,-2%,-3%,0.4%,-1%,-17%,.,-6%
O=C(/C=C/c1cccs1)c1ccc(NC(=O)c2ccccc2F)cc1,8%,36%[activator],6%,-4.4%,1%,8%,?,-17%
CCOC(=O)C1CCCNC1=O (stereo unspecified),0%,-5%,0%,.,.,-4%,0%,1%
CC(=O)OC(C)(C)/C=C/C(=O)[C@](C)(O)[C@H]1[C@H](O)C[C@@]2(C)[C@@H]3CC=C4[C@H](C[C@H](O)C(=O)C4(C)C)[C@]3(C)C(=O)C[C@]12C,0.29µM*,18µM*,?,-1.1%,?,7%,?,-36%
COc1ccc(CN(C)C(=O)Cc2c[nH]c3ccccc23)cc1,.,18%,-3%,.,.,10%,.,-13%
COc1ccc(N(CC(=O)Nc2cccc(C(F)(F)F)c2)S(C)(=O)=O)cc1,-17%,1%,-13%,-11%,18%,11%,6%,-1%
CC(C)NC(=O)c1ccc(Cn2c(=O)c3cccn3c3cccnc32)cc1,-4%[46.1 µM],-7%,.,0.4%,-3%,.,.,.
COc1ccc(C(=O)OCC(=O)NCCc2ccc(F)cc2)cc1S(=O)(=O)N1CCOCC1,3%,11%,7%,.,.,-17%,-3%,.
CCCN1CN=C(Nc2nc3ccccc3o2)NC1,14%,56%[activator],0%,.,.,6%,20%[46.1 µM],-1%
CC(C)NC(=O)c1cc(=O)n(C)c(=O)n1C,0%,-14%,0%,6.3%,-1%,-10%,9%,1%
O=C(NC(=S)NNC(=O)c1ccccc1O)c1ccco1,-13%,15%,-56%,-1.1%,-5%,-14%,-7%,-40%
COc1ccc(C(=O)Nc2cccc(-c3cnc4ccccc4n3)c2)cc1,5%,1%,-2%,-3.8%,17%,18%,-4%,4%
CCOC(Cn1ccc(=O)[nH]c1=O)OCC,.,-7%,1%,.,.,-13%,.,5%
O=C(COC(=O)/C=C/c1ccc(OC(F)F)cc1)Nc1ccc2[nH]c(=O)[nH]c2c1,-10%,-3%,14%,.,.,5%,-19%,.
COc1ccc(OC)c(NC(=O)C2CCN(Cc3cnn(-c4ccccc4)c3-n3cccc3)CC2)c1,?,-16%,4%,3.4%,-29%,9%,?,-12%
Cc1ccc(C(=O)OCC(=O)Nc2nc(-c3ccccc3)cs2)cc1NC(=O)c1ccco1,?,25µM*,15%,.,.,4%,?,8%
Nn1c(SCc2ccc([N+](=O)[O-])cc2)nc2ccccc2c1=O,.,-4%,1%,.,.,-6%,.,?
Cc1[nH]c2ccccc2c(=O)c1CN1CCCCCC1,?,-4%,1%,.,.,-2%,1%[46.1 µM],5%
CC1(C)NC(=O)N(CCOc2ccc3c(c2)CCC3)C1=O,?,12%,-2%,2.4%,9%,-9%,?,-1%
O=c1c2c3c(sc2nc2n1CCCC2)CCC3,-10%,.,-15%,3.4%,-11%,-28%,2%,-41%
COc1ccc(CNS(=O)(=O)c2cc(CN3C(=O)c4cccnc4C3=O)ccc2OC)cc1,.,0%,3%,.,.,-4%,.,-1%
COc1ccc(N2CCOCC2)c(NC(=O)c2cc3ccccc3o2)c1,-4%[46.1 µM],?,-1%,.,.,-3%,?,-7%
Cc1cc2oc(=O)cc(CN3CCOCC3)c2cc1Cl,12%[46.1 µM],0%,-13%,.,.,-4%,.,5%
Cc1ccc(Cl)cc1NC(=O)CCCN1C(=O)CCn2nc(-c3cn(C)c4ccccc34)cc21,?,-21%,.,-0.2%,?,.,.,.
CCOc1ccc(N(CC(=O)NC2CCCC2)S(=O)(=O)c2c(C)[nH]c(=O)[nH]c2=O)cc1,.,-20%,5%,-1.2%,2%,2%,.,3%
Cc1cc(Cl)c(C(=O)Nc2cccc(C(F)(F)F)c2)c(C)n1,.,0%,1%,.,.,2%,.,12%
CC1(C)Cc2c(cnn2-c2cccc(F)c2)C(NC(=O)C2CCOCC2)C1 (stereo unspecified),0%,30%,2%,.,.,2%,9%,16%
Cc1ccc2c(c1)N(C(=O)CCC(=O)NC1CCC(C)CC1)CCO2 (stereo unspecified),.,-3%,-10%,.,.,-14%,.,-15%
# New compounds follow
SMILES,LASV entry inh,StopGo reporter,SARS PLP yeast,Cruzain inh Det,Cruzain noTriton,RE007 growth inh,MARV entry inh,NS1 function inh
CC1=C(C(=O)Nc2ccccc2)C(c2cccc(O)c2)n2nc(-c3ccccc3Cl)nc2N1 (stereo unspecified),-7%[46.1 µM],-17%,.,-8.4%,8%,.,-29%[46.1 µM],.
COc1ccc2c(CNCc3ccco3)c(C(=O)O)n(Cc3ccc(F)cc3Cl)c2c1,1%[46.1 µM],-17%,.,-2.0%,-14%,.,.,.
Cc1cccc(C)c1NC(=O)Cn1c(CN2CCCCC2)nc2ccccc2c1=O,-4%,-5%,8%,-0.4%,2%,1%,-4%,-7%
C#CC(N)CCC(=O)O (stereo unspecified),-3%,.,.,-3.7%,7%,.,?,-6%
COc1ccc(NC(=O)CC2SC(=O)NC2=O)cc1 (stereo unspecified),2%,-9%,-1%,.,.,-27%,19%[46.1 µM],.
C=COC(=O)CSc1snc(SCC(=O)OC)c1C#N,-8%,5%,-15%,-0.8%,1%,-20%,19%,-134%
CC(C)(C)c1ccc(S(=O)(=O)NCc2ccc(C(=O)N3CCOCC3)cc2)cc1,-12%,-11%,3%,-0.4%,?,-12%,18%,-8%
CCCCc1ccc(NC(=O)CSC2=NN3CCCC(=O)N=C3S2)cc1,?,-28%,-1%,.,.,27%,?,-7%
NS(=O)(=O)c1ccc(N=Nc2c(-c3ccccc3)[nH]n(-c3nc(-c4ccccc4)cs3)c2=O)cc1,?,-20%,5%,-9.8%,-2%,5%,22µM*,-5%
COc1cc(OC)cc(C(=O)NC(=S)NNC(=O)[C@H]2C[C@@H]2c2ccccc2)c1,3.2µM*,-15%,-2%,.,.,5%,-16%[46.1 µM],-36%
Cc1c(C(=O)N2CCN(Cc3ccccc3)CC2)oc2c1C(=O)CCC2,.,-24%,1%,.,.,3%,.,1%
COc1cccc(NC(=O)CN(C)C(=O)Cc2ccc(Cl)cc2Cl)c1,-7%,-3%,-2%,.,.,-9%,-19%,2%
Cc1ccc(NC(=O)c2ccc(NC(=O)C3CCCCC3C(=O)O)cc2)cc1 (stereo unspecified),.,-18%,?,.,.,0%,.,8%
O=c1[nH]c(CN2CCc3ccccc32)nc2scc(-c3cccs3)c12,?,6%,9%,-5.7%,10µM*,15%,?,8%
CCCOc1nc(C)cc(COC)c1C(N)=O,?,2%,-2%,.,.,9%,25%[46.1 µM],.
COc1cc(NC(=O)c2cc(C)on2)cc(OC)c1OC,?,5%,4%,4.8%,-3%,6%,7%,-7%
